VDR inh: blocks the human vitamin D receptor | Potency, µM, inactives show max response, negative = inhibition, usual class: inhibitors | P11473 | VDR-SRC2-3 peptide fluorescence polarization, 2 h | actives 0.93% (n = 400,000); active = well fitted inhibition curve with a large enough effect; inconclusive = small, poorly fitted or top-dose-only effect, or another doubt; inactive = no such curve, though single readings can be large or run the other way; also: series mostly up to about 120 µM
Target sequence (P11473 whole entry, looked up): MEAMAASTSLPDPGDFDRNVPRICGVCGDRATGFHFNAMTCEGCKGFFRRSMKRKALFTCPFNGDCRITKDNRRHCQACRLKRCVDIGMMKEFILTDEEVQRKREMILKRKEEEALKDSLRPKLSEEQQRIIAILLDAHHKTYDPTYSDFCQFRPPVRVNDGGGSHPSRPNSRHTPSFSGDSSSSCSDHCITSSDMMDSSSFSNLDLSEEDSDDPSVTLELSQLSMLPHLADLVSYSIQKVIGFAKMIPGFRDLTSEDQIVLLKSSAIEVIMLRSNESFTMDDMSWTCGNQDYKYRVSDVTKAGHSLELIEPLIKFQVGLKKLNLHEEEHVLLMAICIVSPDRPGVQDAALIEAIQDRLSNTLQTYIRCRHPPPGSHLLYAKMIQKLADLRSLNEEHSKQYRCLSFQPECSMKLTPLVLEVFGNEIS
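Reagent solutions, kept cold and dark, are dispensed first; compounds are then pinned in at 23 nl, plates briefly spun, and incubated 2 h at ambient temperature. Inhibition of VDR–SRC2-3 peptide binding is read by fluorescence polarization.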
* hit, by the source's call; & = joins results of further samples. % is scaled to controls: 0 for no effect and ±100 for the full control effect; potency is read from the fitted curve at half-maximal effect.

Screening CC(=O)NCCC1CCN(C(=O)c2cc(COc3ccc(C)nc3)on2)CC1 returned VDR inh -10%.
`Cc1cc(-c2ccc(S(=O)(=O)NCc3ccc(F)cc3)cc2)on1` gave VDR inh 15%.
O=c1c(-c2ccccc2)c(-c2ccccc2)oc2cc(O)cc(O)c12 was read as VDR inh inconclusive.
O=C(NCC1CCCO1)c1nc(Cn2ccc([N+](=O)[O-])n2)no1 (configuration not stated) was read as VDR inh 9%.
COC(=O)C(C)Sc1nc2c(c(=O)n(C)c(=O)n2C)n1Cc1cccc(C)c1 (configuration not stated) was read as VDR inh -6%.
For O=C(CN1CCN(c2nc(-c3ccc(F)cc3)cs2)CC1)NCc1ccc2c(c1)OCO2 the results were VDR inh 5%.
`CCCC1C2C(=O)N(c3ccccc3OC)C(=O)C2ON1c1ccccc1` (configuration not stated) gave VDR inh 21%.
Screening COc1ccc(Cl)cc1C(=O)NNC(=O)COC(=O)c1cccs1 returned VDR inh -12%.
For CCOc1ccc(NC(=O)CN(C)C(=O)c2cn(-c3ccccc3)nc2-c2cccs2)cc1OCC the results were VDR inh -3%.
For COc1ccc2cc3cc(C(=O)NCCC(C)C)oc3nc2c1 the results were VDR inh -6%.
`O=c1c2ccccc2nnn1CSc1nc2ccccc2c(=O)n1Cc1ccco1` gave VDR inh -2%.
For Cc1[nH]nc2c1C(c1ccc(-c3ccccc3C#N)o1)C(C#N)=C(N)O2 (configuration not stated) the results were VDR inh 0%.
NC(=O)COC(=O)c1ccc(Cl)c(S(=O)(=O)N2CCN(c3ccc(F)cc3)CC2)c1 was read as VDR inh 10%.
`O=C(N/N=C\c1ccc(-c2cccc(Cl)c2)o1)C(=O)NC1CCCC1` gave VDR inh 10%.
For COc1cccc(/C=N/NC(=O)C(=O)Nc2ccccc2OC(F)(F)C(F)F)c1 the results were VDR inh -16%.
For CCc1nn(CC(=O)N2CCN(c3ccc(Cl)cc3)CC2)c(=O)c2cc3occc3n12 the results were VDR inh 22%.
`OC(C#CCN1CCOCC1)(c1ccccc1)C1CC1` (configuration not stated) gave VDR inh -14%.
CCCNC(=S)Nc1ccc(Cl)cc1C was read as VDR inh -11%.
Screening Cc1cc(C)c2c(c1C)C(=O)CCC2 returned VDR inh -10%.
Screening CC(CN1CCOCC1)(NS(=O)(=O)c1ccccc1)c1ccccc1 (configuration not stated) returned VDR inh -15%.
Screening C[C@H](CO)N1C[C@H](C)[C@@H](CN(C)C(=O)Nc2ccc3c(c2)OCO3)Oc2ccc(NC(=O)NC3CCCCC3)cc2C1=O returned VDR inh -23%.
Screening CCOc1ccc(NC(=O)CSc2nc3c([nH]c4ccccc43)c(=O)n2C)cc1 returned VDR inh inconclusive.
Screening Cc1ccccc1CS(=O)(=O)Cc1ccc(C(=O)NCc2ccco2)o1 returned VDR inh -1%.
Screening COC(=O)c1sccc1NC(=O)CCC1CCCCC1 returned VDR inh 4%.
O=C(Nc1cccc(C(F)(F)F)c1)c1cccnc1NCCO was read as VDR inh -3%.
For CCC(C)Nc1nc2c(c(=O)n(C)c(=O)n2C)n1Cc1ccc(Cl)cc1 (configuration not stated) the results were VDR inh -16%.
Cc1cc(NC(=O)c2ccc(N3CCCC3)c([N+](=O)[O-])c2)no1 was read as VDR inh -19%.
Screening O=C(O)CCCNS(=O)(=O)c1ccc(F)cc1 returned VDR inh 2%.
`COc1ccc(-n2nc(C(=O)NCC(=O)NCC3COc4ccccc4O3)c3ccccc3c2=O)cc1` (configuration not stated) gave VDR inh 2%.
Screening CC(=O)OCc1cnc(C)c2oc(=O)c(C(=O)Nc3cc(F)ccc3C)cc12 returned VDR inh -8%.
`COc1ccc(-c2noc(CN(C)Cc3ccc(C)o3)n2)cc1` gave VDR inh -27%.
For O=C(Cn1nc(C(=O)O)c2ccccc2c1=O)c1cc(F)ccc1F the results were VDR inh inconclusive.
CCOC(=O)N1CCC(N2CCCC(C(=O)c3ccc4cc(OC)ccc4c3)C2)CC1 (configuration not stated) was read as VDR inh -13%.
`CC(C)n1nc(C(=O)OCn2nnc3ccccc3c2=O)c2ccccc2c1=O` gave VDR inh -18%.
`COc1ccc(-c2cc3nc(C)cc(-c4ccc(OC)cc4)n3n2)cc1` gave VDR inh -22%.
Screening CCc1ccc(/C=N/NC(=O)c2cc(-c3cccc([N+](=O)[O-])c3)n[nH]2)cc1 returned VDR inh -15%.
For COCCCN(CC(=O)Nc1ccc(N2CCOCC2)cc1)S(=O)(=O)c1ccc(C)cc1 the results were VDR inh -17%.
COc1ccc2[nH]c3nc(SCC(=O)Nc4cccc(NC(C)=O)c4)nnc3c2c1 was read as VDR inh -1%.
O=C(NN=Cc1ccc(F)cc1)c1ccccc1NS(=O)(=O)c1cccs1 was read as VDR inh 8%.
Screening CCOc1ccc(C(=O)Nc2cccc(-c3nc4cccnc4o3)c2)cc1Cl returned VDR inh -21%.
CN(C)c1ccc(C(=O)Nc2c(C(=O)NC(C)(C)C)oc3ccccc23)cc1 was read as VDR inh 10%.
Screening COc1ccc2c(Cn3cnc4cc([N+](=O)[O-])ccc4c3=O)cc(=O)oc2c1 returned VDR inh 3%.
`COc1ccccc1Oc1coc2c(CN3CCN(C)CC3)c(O)ccc2c1=O` gave VDR inh 8%.
N#Cc1c2n(c3c(-c4ccccc4)ncnc13)CCC2 was read as VDR inh 0%.
Screening O=C(NCCCc1ccccc1)C1CC1 returned VDR inh -10%.
Screening Cc1ncc(CO)c2c1Oc1nc(-c3ccccc3F)nc(SCC(=O)N3CCCCC3)c1C2 returned VDR inh 2%.
COc1ccc(CNC(=O)CSc2cc(=O)n(C)c3ccccc23)cc1 was read as VDR inh -7%.
For CSc1nnc(-c2ccc(NC(=O)CCc3ccccc3)cc2)n1C the results were VDR inh -11%.
For O=C(CSc1ccccc1)NCc1cccnc1 the results were VDR inh 1%.
Screening COc1ccc(C2C(C(=O)N3CCN(c4ccccc4)CC3)c3ccccc3C(=O)N2C)cc1 (configuration not stated) returned VDR inh -8%.
For CCOc1ccccc1OCC(=O)Nc1nnc(C)s1 the results were VDR inh 16%.
`CCN1CCN(S(=O)(=O)c2cccs2)CC1` gave VDR inh -11%.
For CCCCOc1ccc(N(CC(=O)NC(C)(C)C)C(=O)CCC(=O)Nc2nccs2)cc1 the results were VDR inh -19%.
Screening Cc1ccc(S(=O)(=O)NCC(=O)OCC(=O)c2ccc(Cl)s2)cc1 returned VDR inh 0%.
For Cc1cc(OCC(=O)NCCN2CCOCC2)c2c(C)c(C)c(=O)oc2c1 the results were VDR inh -14%.
O=C(c1cccc(S(=O)(=O)N2CCN(c3ccccc3)CC2)c1)N1CCCCCCC1 was read as VDR inh -13%.
For CC(C)(C)NC(=O)NC(=O)Cn1ccsc1=N the results were VDR inh 2%.
For CCCc1cc(-c2nc(-c3ccc(Br)cc3)cs2)ccn1 the results were VDR inh -12%.
For Cc1cc(C)cc(NC(=S)NCc2ccc3[nH]c4c(c3c2)CCCC4)c1 the results were VDR inh -3%.
Screening COc1ccccc1OCC(=O)Sc1ccc(C)cc1 returned VDR inh inconclusive.

Reprinted from the listing for reference:
COc1ccc2[nH]c3nc(SCC(=O)Nc4cccc(NC(C)=O)c4)nnc3c2c1 was read as VDR inh -1%.
O=C(NN=Cc1ccc(F)cc1)c1ccccc1NS(=O)(=O)c1cccs1 was read as VDR inh 8%.
Screening CCOc1ccc(C(=O)Nc2cccc(-c3nc4cccnc4o3)c2)cc1Cl returned VDR inh -21%.
CN(C)c1ccc(C(=O)Nc2c(C(=O)NC(C)(C)C)oc3ccccc23)cc1 was read as VDR inh 10%.
Screening COc1ccc2c(Cn3cnc4cc([N+](=O)[O-])ccc4c3=O)cc(=O)oc2c1 returned VDR inh 3%.
`COc1ccccc1Oc1coc2c(CN3CCN(C)CC3)c(O)ccc2c1=O` gave VDR inh 8%.
N#Cc1c2n(c3c(-c4ccccc4)ncnc13)CCC2 was read as VDR inh 0%.
Screening O=C(NCCCc1ccccc1)C1CC1 returned VDR inh -10%.
Screening Cc1ncc(CO)c2c1Oc1nc(-c3ccccc3F)nc(SCC(=O)N3CCCCC3)c1C2 returned VDR inh 2%.
COc1ccc(CNC(=O)CSc2cc(=O)n(C)c3ccccc23)cc1 was read as VDR inh -7%.
For CSc1nnc(-c2ccc(NC(=O)CCc3ccccc3)cc2)n1C the results were VDR inh -11%.
For O=C(CSc1ccccc1)NCc1cccnc1 the results were VDR inh 1%.
Screening COc1ccc(C2C(C(=O)N3CCN(c4ccccc4)CC3)c3ccccc3C(=O)N2C)cc1 (configuration not stated) returned VDR inh -8%.
For CCOc1ccccc1OCC(=O)Nc1nnc(C)s1 the results were VDR inh 16%.
`CCN1CCN(S(=O)(=O)c2cccs2)CC1` gave VDR inh -11%.
For CCCCOc1ccc(N(CC(=O)NC(C)(C)C)C(=O)CCC(=O)Nc2nccs2)cc1 the results were VDR inh -19%.
Screening Cc1ccc(S(=O)(=O)NCC(=O)OCC(=O)c2ccc(Cl)s2)cc1 returned VDR inh 0%.
For Cc1cc(OCC(=O)NCCN2CCOCC2)c2c(C)c(C)c(=O)oc2c1 the results were VDR inh -14%.
O=C(c1cccc(S(=O)(=O)N2CCN(c3ccccc3)CC2)c1)N1CCCCCCC1 was read as VDR inh -13%.
For CC(C)(C)NC(=O)NC(=O)Cn1ccsc1=N the results were VDR inh 2%.

Next structures follow.
CN(C)CCNC(=O)c1ccc(Cl)c2cc3ccccc3nc12 was read as VDR inh -11%.
O=c1oc2ccccc2cc1-c1cn2ccccc2n1 was read as VDR inh 2%.
For Cc1ccc(N(CC(=O)NC2CC2)S(=O)(=O)c2ccccc2)c(C)c1 the results were VDR inh 14%.
Screening Cn1cc(/C=C2/SC(=O)N(CC(=O)Nc3ccc4c(c3)OCO4)C2=O)c2ccccc21 returned VDR inh 7%.
Screening COc1ccc(S(=O)(=O)Nc2cc3c4c(c2)CC(=O)N4CCC3)cc1C returned VDR inh 4%.
`Cc1ccc(S(=O)(=O)NCCN=Cc2ccc(N(C)C)cc2)cc1` gave VDR inh -8%.
`CC(=O)Nc1ccc2nc(-c3cc(C)ccc3C)[nH]c2c1` gave VDR inh -4%.
`O=C1CC(c2ccccc2)=NN1c1ccc([N+](=O)[O-])cc1` gave VDR inh inconclusive.
Screening O=C(CSc1nnc(CNC(=O)c2ccc(F)cc2)o1)NCc1ccccc1 returned VDR inh -12%.
`COc1ccccc1NC(=O)C1CCCN1C(=O)Nc1ccc(F)cc1` (configuration not stated) gave VDR inh 8%.
Screening COc1ccc(OC)c(C(O)CNC(=O)CN)c1 (configuration not stated) returned VDR inh -8%&-4%.
Screening Cc1cccc(NC(=O)C2CCCN(S(=O)(=O)c3cccc4nsnc34)C2)n1 (configuration not stated) returned VDR inh -6%.
Screening N/C(=N\OC(=O)c1ccccc1F)c1cccc([N+](=O)[O-])c1 returned VDR inh -7%.
CC(C)n1c(CN2CCN(Cc3ccccc3)CC2)nc2ccccc21 was read as VDR inh -6%.
CC(=O)N(C)c1ccc(OCC(O)COc2ccc(N(C)C(C)=O)cc2)cc1 was read as VDR inh -2%.
`COc1ccc(C(C)=O)cc1Cn1cnc2c(cnn2C)c1=O` gave VDR inh inconclusive.
O=C(Cn1c(=O)sc2ccccc21)Nc1ccc(O)cc1 was read as VDR inh 4%.
Screening CC(C)CSc1oc(-c2ccco2)nc1S(=O)(=O)c1ccccc1 returned VDR inh -24%.
Screening Cn1c(=O)c2cc(S(=O)(=O)NC(C(=O)Nc3cccnc3)c3ccccc3)ccc2n(C)c1=O (configuration not stated) returned VDR inh -12%.
For CC(=O)COc1ccc(-c2csnn2)cc1 the results were VDR inh -26%.
For COc1cc(C(CCN2CCCC2)c2c(OC)cc(OC)c3c2OC(=O)CC3c2ccc(N(C)C)cc2)cc(OC)c1OC (configuration not stated) the results were VDR inh -5%.
Screening CCN(CC)CCCN(C(=O)c1ccco1)c1nc(-c2ccc(C)cc2)cs1 returned VDR inh -3%.
For Cc1ccc(N(CC(=O)NCc2ccco2)C(=O)CCC(=O)Nc2ccccn2)cc1C the results were VDR inh -1%.
Cc1cn(C)c(CC(=O)N2CCN(c3ccc(F)cc3)CC2)c1C(=O)O was read as VDR inh 10%.
`COc1ccccc1NC(=O)C1=C(C)Nc2ncnn2C1c1cccn1C` (configuration not stated) gave VDR inh -1%.
For Cc1ccccc1C(=O)Nn1cnc2ccccc2c1=O the results were VDR inh 1%.
COc1cc(NC(=O)c2nnn(Cc3ccc(F)cc3)c2N)cc(OC)c1 was read as VDR inh -23%.
`O=C(CCN1C(=O)c2ccccc2S1(=O)=O)Nc1ccccc1F` gave VDR inh 13%.
Screening CCCCN(CC(=O)Nc1cccc(S(=O)(=O)N2CCCC2)c1)Cc1nc2ccccc2c(=O)[nH]1 returned VDR inh 0%.
For O=C1c2ccccc2C(=O)N1CC1=NCCc2ccccc21 the results were VDR inh 0%.
`COc1ccc(-c2cc3ccc(OCc4nn[nH]n4)cc3oc2=O)cc1OC` gave VDR inh -1%.
Screening COc1cccc(CNC(=O)Cn2cccc2C(=O)c2ccccc2)c1 returned VDR inh 12%.
Screening O=C(CCNS(=O)(=O)c1ccc(Br)cc1)NCc1ccco1 returned VDR inh -2%.
For CN1C(=O)c2oc3ccccc3c(=O)c2C1c1cccnc1 (configuration not stated) the results were VDR inh 8%.
For CCN(CC)S(=O)(=O)c1ccc(/C=C/C(=O)Nc2ccc(F)c(F)c2F)cc1 the results were VDR inh -12%.
For Cn1c(CCC(=O)O)nc2cc(S(=O)(=O)N3CCCCC3)ccc21 the results were VDR inh inconclusive.
For O=C1CCc2cc(S(=O)(=O)N3CCN(c4cccc(C(F)(F)F)c4)CC3)ccc2N1 the results were VDR inh -19%.
CN(c1cccc(NC(=O)CCSc2ccccc2)c1)S(C)(=O)=O was read as VDR inh -1%.
For CCOC(=O)N1CCC(NC(=O)C2CCN(S(=O)(=O)c3cccs3)CC2)CC1 the results were VDR inh 2%.
Screening COc1cc(C2c3c(oc4ccc(C)cc4c3=O)C(=O)N2Cc2ccc(F)cc2)ccc1O (configuration not stated) returned VDR inh -1%.

Screens as filed in PubChem BioAssay.

Not all compounds are listed; count on the stated rates, not on these rows.
